Bioassay records from PubChem.
PINK1 expr mod: A Quantitative High throughput Screen to Identify Chemical Modulators of PINK1 Expression | PINK1 immunofluorescence, high-content cytometry, 24 h | Potency, µM (titrated, usually from 76.6 µM), for inactives: at the highest dose activation (PINK1 increase), hits mostly activators | 410,000 tested, 0.2% active; active = well fitted activation curve with a large enough effect; inconclusive = small, poorly fitted or top-dose-only effect; inactive = flat fitted curve, though single readings scatter; cell line not stated here;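 note: potency is the fitted concentration of half-maximal effect; % of control where 0% means no effect; nearly all actives have a fitted effect of over 65% in size; a mitochondrial uncoupler was the plate control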
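Compound titrations (5 concentrations, 24 h) on a stable cell line; DMSO and CCCP controls. Endpoint: fixed-cell PINK1 immunofluorescence with mitochondrial, cell and nuclear markers, scanned by microplate cytometer.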
TRPML1 agonist: qHTS for Agonists of the Human Mucolipin Transient Receptor Potential 1 (TRPML1). TRPML1-expressing cells, Ca2+ dye fluorescence, FDSS; host cell line not named in the record; reference of the full effect not given here. activation, % (concentration not given with the values). 410,000 tested, 0.12% active; in the data active = activation above about 50%; inconclusive = about 30% to 50%; inactive = below about 30%; note: 0% is about no effect; the text of the record puts the active cut at 80%
Target sequence (Q9GZU1 whole entry, looked up): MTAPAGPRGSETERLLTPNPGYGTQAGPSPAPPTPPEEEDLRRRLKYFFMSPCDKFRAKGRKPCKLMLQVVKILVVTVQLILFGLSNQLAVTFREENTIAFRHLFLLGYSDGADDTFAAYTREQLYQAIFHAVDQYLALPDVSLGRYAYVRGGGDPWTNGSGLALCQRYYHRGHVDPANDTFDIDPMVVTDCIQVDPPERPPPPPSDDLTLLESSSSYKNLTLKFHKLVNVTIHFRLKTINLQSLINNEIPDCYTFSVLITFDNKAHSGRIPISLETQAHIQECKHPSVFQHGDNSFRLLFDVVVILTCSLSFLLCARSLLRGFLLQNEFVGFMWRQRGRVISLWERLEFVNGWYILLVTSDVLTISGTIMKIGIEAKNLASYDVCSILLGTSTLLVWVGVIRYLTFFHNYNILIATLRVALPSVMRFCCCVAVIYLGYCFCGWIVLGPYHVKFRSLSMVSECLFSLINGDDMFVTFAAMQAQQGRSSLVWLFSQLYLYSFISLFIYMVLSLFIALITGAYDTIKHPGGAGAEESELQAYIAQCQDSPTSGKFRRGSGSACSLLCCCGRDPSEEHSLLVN
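In this qHTS format, compounds were pin-transferred onto Ca8-dye-loaded TRPML1-DL cells induced with Tet overnight, and intracellular Ca2+ fluorescence was recorded kinetically for 110 s after a 10 s baseline. A subsequent 4uM final 54-4 (EC80) addition followed by a second 110 s read served as the antagonist phase.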
D2 potentiator: Beta-Arrestin HTS for Positive Allosteric Modulators of the Human D2 Dopamine Receptor: Potentiators; D(2) dopamine receptor (Homo sapiens), P14416; DiscoveRx D2 beta-arrestin cells, luminescence, 90 min; 100% = 57 uM dopamine signal; potentiation, % (concentration not given with the values); 360,000 tested, 0.23% active; active = potentiation of 50% or more; inconclusive = 30% to 50%; inactive = 30% or less;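 note: compound concentration not given in the record; tested on top of an EC20 dose of dopamine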
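PathHunter beta-arrestin assay in DiscoveRx D2 cells. Compounds were added with an EC20 of dopamine (50 nM final) for 90 min at 37 deg C. Luminescence was read 1 h after detection reagent, with 57 uM dopamine as the EC100 control.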
Six1-Eya2 inh: qHTS Assay for Inhibitors of the Six1/Eya2 Interaction; activity change, % (no concentration beside the values); Homeobox protein SIX1 (Homo sapiens) + Protein phosphatase EYA2 (Homo sapiens), …; 360,000 tested, 0.56% active; AlphaScreen GST-Six1/His-Eya2 binding, biochemical; active compounds read low; control for the full effect not named in the record; in the data active = activity change below about -65%; inconclusive = about -30% to -65%; inactive = above about -30%; note: % is set by controls: 0 for no effect and ±100 for the full control effect
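AlphaScreen with GST-Six1 and His-Eya2 (5X mix: 250 nM and 500 nM), glutathione donor and nickel acceptor beads; buffer 50 mM Tris pH 8.0, 300 mM NaCl, 1 mM TCEP; 1 h at 37 C in the dark.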
D2 ag: Beta-Arrestin HTS for Positive Allosteric Modulators of the Human D2 Dopamine Receptor: Agonists. DiscoveRx PathHunter D2 beta-arrestin, luminescence, 90 min; 100% = 57 uM dopamine signal. activation, % (no concentration beside the values). D(2) dopamine receptor (Homo sapiens), P14416. 360,000 tested, 0.084% active. AID 624465, 2012; in the data active = activation above about 40%; inconclusive = about 15% to 40%; inactive = below about 15%; note: compound concentration not given in the record; the text of the record calls up to 30% inactive
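DiscoveRx PathHunter D2 beta-arrestin cells (2,100/well) attached overnight, then compound-stimulated 90 min at 37 C in HBSS/10 mM HEPES/0.1% Tween-20 buffer; beta-galactosidase complementation read by luminescence after 1 h at ambient temperature. Dopamine 57 uM final (EC100) as control.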
CtBP-E1A blk: qHTS Assay for Inhibitors of the CtBP/E1A Interaction | CtBP / adenovirus E1A interaction (AlphaScreen) | AlphaScreen GST-E1A/His-CtBP binding, 1536-well; active compounds read low; control for the full effect not named in the record | activity change, % (test concentration not listed) | 340,000 tested, 0.49% active; in the data active means activity change below about -65%; inconclusive means about -30% to -65%; inactive means above about -30%; note: % is set by controls: 0 for no effect and ±100 for the full control effect
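Protein mix (5X: 125 nM each GST-E1A, His-CtBP) was incubated with pinned compound 2 h at 37 deg C in dark, in 50 mM Tris pH 8.0 buffer with 300 mM NaCl. Glutathione donor and nickel acceptor beads followed; AlphaScreen signal read after 1 h.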
* marks the source's active call; other numbers are inactive results; ? = inconclusive; · = not tested or not shown; & = joins results of further samples; [ ] = dose if it differs, or a comment.

SMILES	PINK1 expr mod	TRPML1 agonist	D2 potentiator	Six1-Eya2 inh	D2 ag	CtBP-E1A blk
Cc1cc(=O)c(C(=O)c2ccccc2)c(C)o1	1.7%	-0.6	-5	15	-7.9	-7
CC1CCN(c2nc3ccc(C(=O)N4CCN(Cc5ccccc5)CC4)cc3s2)CC1	3.8%	-1.4	-4	-1	-4.1	-1
Cc1ccccc1Nc1ncnc(N)n1	0.2%	0.7	-7	6	-4.3	11
CSc1snnc1-c1ccccc1	4.4%	0.6	-6	-3	0.2	10
O=C(NNC(=S)NCC1CCCO1)c1ccc(S(=O)(=O)N2CCOCC2)cc1 (configuration not stated)	0.8%	-0.8	-6	3	-5.5	-10
CC(=O)Nc1ccc(S(=O)(=O)NCC2CCC(C(=O)N3CCCCC3)CC2)cc1 (configuration not stated)	-0.1%	0.0	-4	1	-4.8	3
Cc1ccc(C(=O)NN=CC(=O)c2ccccc2)c(C)c1	3.8%	0.0	-33	2	-5.2	·
O=c1sc(N2CCN(c3ccccc3F)CC2)nc2ccsc12	2.1%	0.2	-6	12	-5.6	11
O=C(Nc1ccc2c(c1)OCCO2)c1c[nH]c(=O)n(-c2ccc(F)c(Cl)c2)c1=O	0.0%	0.7	-4	-1	-0.4	0
COc1ccccc1C(=O)COC(=O)c1ccc(-n2cnnn2)cc1	8.1%	2.0	-5	-10	8.5	5
Cc1csc(SCC(=O)N(C)CC(=O)Nc2ccccc2Cl)n1	-0.7%	0.9	1	1	-5.1	5
CN(C)CCNc1ncnc2c1ncn2[C@H]1CN(Cc2ccc(Cl)cc2)C[C@@H](CO)O1	1.2%	0.7	0	-4	-3.8	3
CC(=O)Nc1cccc(-c2ccnc3c2CC(C)(C(=O)NCC2CC2)O3)c1 (configuration not stated)	14%	-0.8	-5	10	-1.7	3
COCCN(CCOc1cc(C)cc(C)c1)Cc1ccc(Cl)cc1	18%	3.1	-35	20	3.6	29
CCOC(=O)c1c(N)nn(C(=O)CC)c1-c1ccccc1	3.0%	1.7	-9	0	-5.0	6
O=C(CSCC(=O)N1CCOCC1)Nc1nc(-c2ccccc2)cs1	0.1%	-0.4	0	3	1.2	-7
CCOC(=O)n1c(=O)n(Cc2ccccc2C)c2ccccc21	0.1%	3.9	-1	-4	-3.3	-4
Cc1ccc(C)c(S(=O)(=O)N2CCN(C(=O)c3ccnn3C)CC2)c1	4.5%	1.2	5	-2	2.9	4
CN(CC(=O)Nc1ccccc1N1CCOCC1)S(=O)(=O)c1ccc(Cl)cc1	3.8%	1.0	-2	1	-2.9	3
COCCN1C[C@@H](CO)O[C@@H](n2cnc3c(N4CCN(c5ccccc5)CC4)ncnc32)C1	0.1%	-1.0	8	?	-2.0	-28
CCCCC(=O)Nc1ccc(C(=O)NNC(=O)c2ccco2)cc1	·	-0.1	0	-1	-2.1	-7
CC(Sc1nc2ccccc2c(=O)[nH]1)C(=O)O (configuration not stated)	6.3%[38.3 µM]	0.4	5	3	2.6	3
C[C@H]1CNC(=O)c2c(C(=O)NC3CCN(C(=O)OC(C)(C)C)CC3)ncn21	2.0%	-0.2	-2	3	-3.6	-14
O=C1CCCS(=O)(=O)c2ccccc21	0.1%	0.2	-4	-4	2.1	0
O=C(c1cccs1)N1C(=O)c2cccc3cccc1c23	3.2%	1.5	-2	1	-4.6	13
CC(C)(C)NS(=O)(=O)c1ccc(NC(=O)c2cc(-c3ccccc3)nc3ccccc23)cc1	·	0.1	2	2	-0.8	-4
O=C1Nc2cc(Cl)c(Cl)cc2N(O)N1c1cccc(Cl)c1	-2.3%[38.3 µM]	0.4	19	-1	0.8	0
C/C(CC(=O)Nc1ccc(Cl)cc1Cl)=N\NC(N)=S	7.9%[38.3 µM]	0.3	-6	2	-0.7	-2
CCOc1ccccc1NC(=O)COn1nnc2ccc(Cl)cc21	-0.3%	-0.8	-8	0	-2.3	4
CC12CS(=O)(=O)CC1SC(=S)N2Cc1ccccc1 (configuration not stated)	-1.2%	1.2	-6	-4	1.0	-10
CCOc1ccc(N=Cc2c(O)c3ccccc3oc2=O)cc1	13%	-0.3	9	17	-3.0	0
CC(C)C(=O)Nc1nnc(-c2ccco2)s1	-0.4%	-0.1	-3	0	-2.4	11
O=C(Cn1nnc2ccccc2c1=O)NCC1CCC(C(=O)O)CC1 (configuration not stated)	3.1%	·	-1	3	1.8	10
S=C(NCCc1ccccc1)N1CCOCC1	0.1%	-0.9	-7	-10	-2.3	-8
CC1=CC(C)C2C(=O)N(c3ccccc3)C(=O)C2C1 (configuration not stated)	3.5%[38.3 µM]	-0.8	9	29	-2.1	57
CCC(C(=O)NC1CCCC1)N(Cc1ccco1)C(=O)Cn1nnc(-c2ccc(C)cc2)n1 (configuration not stated)	42%[38.3 µM]	0.8	-4	-6	-0.5	1
CCCCn1c(N)c(N(CC)C(=O)c2ccccc2F)c(=O)[nH]c1=O	2.9%	-0.5	-3	1	1.7	0
CC(C)C(=O)Nc1nc2c(ncn2C2CC(O)C(CO)O2)c(=O)[nH]1 (configuration not stated)	-1.5%	0.2	-5	6	-3.0	1
COc1cccc(CNC(=O)CN2CCC(c3nc4ccc(C)cc4[nH]3)CC2)c1	4.2%	1.2	-9	3	-3.9	-5
CCN1C(=O)[C@H]2[C@@H](c3ccc(-c4cc(C(C)=O)cs4)cc3)N[C@@](Cc3ccccc3)(C(=O)OC)[C@H]2C1=O	-0.6%	0.1	-2	1	-1.5	·
C/C(=N\OCC(=O)Nc1ccccc1Br)c1cccs1	0.1%	2.5	-7	50	9.2	·
COc1ccc2nc(NC(=S)NC(=O)c3ccco3)sc2c1	-1.6%	0.1	-11	0	-11	·
CCOc1ccc(/C=N/NC(=O)c2nnn(-c3nonc3N)c2COc2ccc(F)cc2)cc1	17%	0.2	-2	3	-0.7	14
Cc1cc(C(=O)CCl)c(C)n1CCc1ccc(Cl)cc1	-1.4%	1.6	-1	-10	-1.5	-16
CS(=O)(=O)N1CCN(c2cnn(-c3ccccc3)c(=O)c2Cl)CC1	-0.4%	0.5	-2	-24	1.3	8
CCC(C(=O)NC1CCCC1)N(C(=O)Cn1nnc(-c2ccc(C)o2)n1)c1ccc(OC)cc1 (configuration not stated)	14%	0.3	-4	0	-2.0	-12
CCCCCN(C(=O)NC(=O)Nc1ccc(C)cc1C)S(C)(=O)=O	-2.3%	-0.8	-2	-7	-8.9	-25
O=C(Nc1cccnc1)c1cc2nc(C3CC3)cc(C(F)(F)F)n2n1	-2.2%	-0.1	2	-10	-1.5	-5
COc1ccc(C2=NOC(COc3ccc4c(C)cc(=O)oc4c3)C2)c(OC)c1 (configuration not stated)	4.1%	0.2	-8	-19	-2.3	-12
NC(=O)CSc1nnc(-c2ccc3c(c2)OCO3)o1	4.0%	-0.5	-6	-4	-3.7	9
Cc1cc(O)c(-c2cc(C(=O)NCCc3ccc(S(N)(=O)=O)cc3)[nH]n2)cc1C	6.4%	1.2	-4	2	-3.4	-8
Fc1cccc(Cl)c1CSc1nnc(COc2cccc3cccnc23)o1	-3.3%[38.3 µM]	1.4	5	0	-0.3	10
CC(=O)c1cc2c(cc1NC(=O)C1CN(C(C)=O)c3ccccc3O1)OCO2 (configuration not stated)	-1.0%	0.4	-10	1	-4.8	3
CSc1nnc(N2C(=O)C(O)=C(C(=O)c3ccco3)C2c2ccccc2F)s1 (configuration not stated)	6.9%	12	-6	-9	-5.4	-3
CC(C)(C)c1ccc(Oc2ccc(N)cc2)cc1	8.9%	0.1	-3	-25	-1.0	-2
Clc1ccc(Nc2ncn[nH]2)cc1	·	-0.2	-12	0	-0.2	-10
O=C(Cc1ccccc1)Nc1cccc(N2C(=O)C=CC2=O)c1	4.5%	0.8	-43	-29	-1.4	-6
O=C(Nc1ccccc1OC(=O)c1ccccc1)c1ccccc1	7.8%	·	3	1	6.8	5
CCOC(=O)C1=C(C)Nc2nc3ccccc3n2C1c1cccs1 (configuration not stated)	8.2%	0.2	12	6	-5.3	-6
Cc1nc2sccn2c(=O)c1S(=O)(=O)Nc1ccc(N2CCN(C(=O)C(C)C)CC2)cc1	-2.2%&-1.4%	0.9&-0.8	1	-5	2.9	-16

Continuation.
SMILES	PINK1 expr mod	TRPML1 agonist	D2 potentiator	Six1-Eya2 inh	D2 ag	CtBP-E1A blk
CC(=O)Nc1cccc(NC(=O)CSc2nnnn2Cc2ccccc2)c1	4.2%	2.7	-12	0	0.6	-1
Cc1sc2nc(CSCC(=O)Nc3c(Cl)cccc3Cl)[nH]c(=O)c2c1C	?	0.0	-28	-15	-2.9	-1
O=C(Nc1nc(-c2cc(Cl)sc2Cl)cs1)c1ccccc1	?	2.3	15	10	-1.4	7
CC(=O)c1ccc(NC(=O)CCc2c(C)nc3ncnn3c2C)cc1	0.5%	0.4	-4	1	-2.1	7
O=C(Nc1cccc(S(=O)(=O)N2CCCC2)c1)c1cncc(Br)c1	-0.8%	0.6	-13	-5	1.4	·
Cc1cc2ncc(-c3cccs3)nc2cc1C	-0.2%	2.1	-8	13	-5.1	·
